TRPML3 ag – activates the human TRPML3 channel; 220,000 tested, 0.29% active; HEK293 TRPML3-YFP, Fluo-8 calcium fluorescence; 100% = the carbachol control signal; activation, % at 3 µM;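 active means activation above its plate's cutoff, the mean activation of the plate's test wells plus 3 SD, cut at about 12% in these data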;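 further: 0% = DMSO only wells and 100% = carbachol wells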
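system = HEK293 cells stably carrying human TRPML3-YFP | doses = one concentration, 3 µM nominal, 0.3% DMSO | timing = dye loading 1 h 37 °C then 30 min ambient, 125 s read | detection = Fluo-8 calcium dye fluorescence, ex 470-495, em 515-575 nm | benchmarks = high control carbachol 87 µM, low control DMSO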
NCF1 inh – inhibitors of human p47phox binding. p47phox/p22phox peptide binding, fluorescence polarization, 2 h. AID 1274. 220,000 tested, 0.53% active. inhibition, % at 24.7 µM;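 active means inhibition above about 30%, limit read from the data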;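 further: 0% = p47phox with labelled peptide and 100% = labelled peptide alone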
Target sequence (P14598 whole entry, looked up): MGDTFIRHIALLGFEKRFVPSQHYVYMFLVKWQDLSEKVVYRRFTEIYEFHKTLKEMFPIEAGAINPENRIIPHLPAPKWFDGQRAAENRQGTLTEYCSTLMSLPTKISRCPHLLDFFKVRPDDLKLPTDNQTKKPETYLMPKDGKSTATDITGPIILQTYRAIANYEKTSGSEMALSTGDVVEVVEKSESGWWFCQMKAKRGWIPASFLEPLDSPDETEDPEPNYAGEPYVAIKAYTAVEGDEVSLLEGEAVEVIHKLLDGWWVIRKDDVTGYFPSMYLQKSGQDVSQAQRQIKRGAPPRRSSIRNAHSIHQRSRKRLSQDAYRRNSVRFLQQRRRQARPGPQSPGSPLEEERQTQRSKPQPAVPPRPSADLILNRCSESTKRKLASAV
CHOP inh – inhibitors of CHOP induction in ER stress response; CHO-K1 CHOP-promoter luciferase, tunicamycin-induced, 15-18 h; inhibition, % at 10 µM; 220,000 tested, 3.8% active; AID 2732;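 active means compounds that reduced the stress-induced luciferase reporter signal by more than about 70% of percent inhibition, limit read from the data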;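 further: 0% = tunicamycin plus vehicle and 100% = wells without tunicamycin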
Mdm2 ligase inh – blocks human Mdm2 ubiquitin ligase activity | Q00987 | cell-based MDM2 ubiquitination luciferase reporter, 2 h; 0 = plate control, 100 = twice control, blank-subtracted | signal enhancement, % at 5 µM | 210,000 tested, 0.11% active;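 active means signal enhancement of 30% or more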;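 further: luminescence tracks abundance of the self-degrading MDM2-luciferase fusion protein; higher signal means inhibition of MDM2 E3 ligase activity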
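Assay system: stable mammalian line carrying autodegrading MDM2–luciferase fusion reporter; amount: 2000 cells seeded into each well; buffer or medium: DMEM; benchmarks: plate control and blank wells; signal: luciferase luminescence; timing: 2 h compound exposure at 37 °C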
TRPN1 ag – activates the zebrafish TRPN1 channel; AID 1424; activation, % at 3 µM; 220,000 tested, 0.18% active; HEK293 zebrafish TRPN1-YFP, Fluo-8 calcium fluorescence; 100% = response to 87 µM carbachol;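 active means activation above its plate's cutoff, the mean activation of test wells on that plate plus 3 SD, cut at about 19% in these data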;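 further: 0% = DMSO alone and 100% = 87 µM carbachol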
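Control set: carbachol 87 µM as high control, DMSO as low control; system: HEK293 stable line with zebrafish TRPN1-YFP; read-out: % activation versus carbachol response; detection: intracellular calcium fluorescence with Fluo-8; doses: single test compound dose, 3 µM nominal, 0.3% DMSO; schedule: dye 1 h 37 °C plus 30 min RT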
The depositor's hits bear a star; nt = not tested or not shown; & = joins results of further samples. Some of the compounds tested, so the mix of outcomes need not match the whole.

Letters: A = TRPML3 ag; B = NCF1 inh; C = CHOP inh; D = Mdm2 ligase inh; E = TRPN1 ag
SMILES: CCOc1ccc(C(=O)N/N=C/c2cccc3cccnc23)cc1
  A: -0.9; B: -6.7; C: 28.3; D: -7.8; E: 2.2
SMILES: C=CCN(CC=C)C(=S)NC(=O)c1ccc(-c2ccccc2)cc1
  A: 0.6; B: -74.3; C: -10.9; D: 16.6; E: -0.5
SMILES: c1ccc(-c2ccc(-c3nc(-c4ccccn4)no3)cc2)cc1
  A: 0.8; B: -22.2; C: 105.2*; D: -17.1; E: 1.0
SMILES: Cc1cccc(NC(=O)CN2C(=O)S/C(=C\c3cccn3-c3cccc(C(=O)O)c3)C2=O)c1
  A: 0.3; B: -25.8; C: 12.7; D: -6.4; E: -0.6
SMILES: Oc1c(Cl)cc(Cl)c(Cl)c1Cc1c(O)c(Cl)cc(Cl)c1Cl
  A: 2.0; B: -37.2; C: 93.3*; D: nt; E: 8.0
SMILES: O=C(NC1=NC2CCCCC2N1)c1ccccc1 (configuration not stated)
  A: 0.3; B: -0.7; C: 9.6; D: -44.9; E: 1.9
SMILES: Cc1ccc(C)c(-c2csc(NC(=O)c3cnccn3)n2)c1
  A: 0.9; B: -0.8; C: -22.1; D: -10.8; E: 1.0
SMILES: S=C(Nc1ccccc1)c1ccccn1
  A: -0.3&0.0; B: -4.5&-9.9; C: -85.8; D: 4.2; E: 0.6&-0.7
SMILES: NC(=O)C1CCN(C(=O)Nc2ccccc2)CC1
  A: 0.6; B: 1.1; C: 10.2; D: 6.0; E: 0.1
SMILES: O=C(Nc1nc2cc3c(cc2s1)OCCO3)C1=COCCO1
  A: 1.3; B: -9.5; C: 93.8*; D: -83.9; E: 2.8
SMILES: OCCOCCN1CCN(C2=Nc3ccccc3Sc3ccccc32)CC1
  A: -0.2; B: -11.4; C: 5.2; D: nt; E: -1.3
SMILES: Cc1cc(O)c(NC(=S)NC(=O)c2ccc(-c3ccc(Cl)cc3)o2)cc1C
  A: -0.4; B: -13.2; C: 105.2*; D: 3.8; E: 0.7
SMILES: CCOC(=O)c1ccc(NC(=O)Nc2ccccn2)cc1
  A: 0.9; B: -1.9; C: -15.6; D: -18.4; E: 1.3
SMILES: CC(/C=C/c1ccc2c(c1)OCO2)=N\NC(=O)c1cccc([N+](=O)[O-])c1
  A: 0.7; B: 0.6; C: 49.7; D: -18.1; E: 0.9
SMILES: O=S(=O)(Nc1ccc(-c2nc3cccnc3s2)cc1)c1cccs1
  A: 0.2; B: -33.2; C: 41.2; D: -11.1; E: -1.3
SMILES: CN(C)CCCN1c2ccccc2Sc2ccc(C(F)(F)F)cc21
  A: 0.0; B: -1.9; C: 19.3; D: nt; E: 1.7
SMILES: COc1ccc(C(=O)N/N=C(\c2ccccc2)c2ccccn2)cc1
  A: 0.0; B: -1.8; C: 53.6; D: -8.4; E: -1.2
SMILES: Cc1cccc(CCN2CCC(C(=O)c3ccc(NS(C)(=O)=O)cc3)CC2)n1
  A: -0.3; B: -5.8; C: 24.0; D: nt; E: 0.4

Gathered by group: those above containing a Cl atom (two)
Letters: A = TRPML3 ag; B = NCF1 inh; C = CHOP inh; D = Mdm2 ligase inh; E = TRPN1 ag
SMILES: Oc1c(Cl)cc(Cl)c(Cl)c1Cc1c(O)c(Cl)cc(Cl)c1Cl
  A: 2.0; B: -37.2; C: 93.3*; D: nt; E: 8.0
SMILES: Cc1cc(O)c(NC(=S)NC(=O)c2ccc(-c3ccc(Cl)cc3)o2)cc1C
  A: -0.4; B: -13.2; C: 105.2*; D: 3.8; E: 0.7

Ordered by the number under NCF1 inh (lowest first): six from the list above
smiles	TRPML3 ag	NCF1 inh	CHOP inh
O=C(Nc1nc2cc3c(cc2s1)OCCO3)C1=COCCO1	1.3	-9.5	93.8*
CCOc1ccc(C(=O)N/N=C/c2cccc3cccnc23)cc1	-0.9	-6.7	28.3
CN(C)CCCN1c2ccccc2Sc2ccc(C(F)(F)F)cc21	0.0	-1.9	19.3
COc1ccc(C(=O)N/N=C(\c2ccccc2)c2ccccn2)cc1	0.0	-1.8	53.6
O=C(NC1=NC2CCCCC2N1)c1ccccc1 (configuration not stated)	0.3	-0.7	9.6
CC(/C=C/c1ccc2c(c1)OCO2)=N\NC(=O)c1cccc([N+](=O)[O-])c1	0.7	0.6	49.7

Given with values under each structure: 2 of the compounds above.
Results follow in this order: TRPML3 ag	NCF1 inh	CHOP inh	Mdm2 ligase inh	TRPN1 ag
- NC(=O)C1CCN(C(=O)Nc2ccccc2)CC1
 : 0.6	1.1	10.2	6.0	0.1
- Cc1ccc(C)c(-c2csc(NC(=O)c3cnccn3)n2)c1
 : 0.9	-0.8	-22.1	-10.8	1.0

Screening results: PubChem BioAssay, several laboratories
